Compound activity (PubChem BioAssay)
Sfp inh = inhibitors of Bacillus subtilis Sfp phosphopantetheinyl transferase; Q9F4F7; Biochemical Sfp PPTase activity, qHTS; Potency, µM, without a hit: max response, negative = inhibition, actives largely listed as inhibitors; hit rate 3.5% among 310,000; AID 1490; active = well fitted inhibition curve with a large enough effect; inconclusive = small, poorly fitted or top-dose-only effect, or another doubt; inactive = no such curve, though single readings can be large or run the other way;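 note: the enzyme is Sfp with the accession as filed and its product quenches rhodamine fluorescence; potency is the fitted concentration of half-maximal effect; 0% = enzyme reaction without inhibitor and -100% = no enzyme wells; top concentration of the series not given in the record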
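After 15 min at room temperature with compound, 15 nM Sfp received 5 uM rhodamine-CoA plus 12.5 uM BHQ-2-ybbR (50 mM Hepes pH 7.6, 10 mM MgCl2). Rate came from the fluorescence difference over 30 min, ex 525/em 598 nm.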
Menin-MLL FL inh = menin-MLL binding inhibition, fluorescein peptide. Fluorescence polarization, fluorescein-MLL peptide displacement from menin. FP activity change, % at 61.4 µM. 290,000 tested, under 10 active; inconclusive = falling polarisation curve, or a change in total fluorescence; inactive = total fluorescence flat and polarisation flat or rising; no compound was filed as active; the % refers to the polarisation; negative = inhibition;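 note: % of control where 0% means no effect; inhibitors lower the polarisation; unlabelled MLL peptide was the positive control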
* marks the source's active call; other numbers are inactive results; ? = inconclusive; & = joins results of further samples; [ ] = another dose, or the depositor's remark. This is a subset (hit frequency here may not be typical).

Below each SMILES – Sfp inh | Menin-MLL FL inh
1: C/C(CCC(=O)OC[C@@H]1O[C@H](C#Cc2ccccc2)C=C[C@@H]1Oc1ccc(C)cc1)=N/O[C@@H](C)CN1CCCc2nc(C)c(C)cc21
  -11% | -2.7[11.7 µM]
2: Cc1ccc(S(=O)(=O)Nc2cccc3ccc(C)nc23)cc1
  -18% | 0.1
3: CO[C@@H]1COC(=O)[C@@H](CCSC)NC(=O)C/C=C\[C@@H](C)COC(=O)CCC[C@H]1C
  0% | -0.5[11.7 µM]
4: COc1ccc(O[C@H]2C=C[C@@H](c3ccccc3)O[C@H]2CO/N=C2/[C@H]3O[C@@H]3[C@@H](O)[C@H]3[C@H]2CCn2c(=O)n(-c4ccccc4)c(=O)n23)cc1
  12% | -5.7[11.7 µM]
5: COC(=O)/C=C/C(C)=C/C=C/C(C)=C/C=C/C=C(C)/C=C/C=C(C)/C=C/C(=O)O
  ? | 11
6: CC(C)CC1OC(=O)C2=CCCCC21 (stereo not drawn)
  7% | -3.6
7: NCCc1cnc(-c2cccc(C(F)(F)F)c2)[nH]1
  4% | 0.6
8: COc1cccc(-c2ccc3ncnc(NCCN4CCOCC4)c3c2)c1
  2% | 0.5
9: COC(=O)C/C=C\[C@@H](C)[C@@H](/C=N\O[C@@H]1O[C@H](COC(C)=O)[C@H](OC(C)=O)[C@H](OC(C)=O)[C@H]1OC(C)=O)OC
  1% | 4.0[11.7 µM]
10: COCCn1c(=O)c(-c2ccccc2)nc2cnc(N3CCOCC3)nc21
  22% | 0.8
11: N#C/C(=C\c1ccc(O)c(O)c1)C(=O)NCCCCc1ccccc1
  79µM* | ?
12: COc1cccc(-c2nccc(NCc3ccc(OC)cc3OC)n2)c1
  -26% | 0.7
13: O=P1(O)OP(=O)(O)OP(=O)(O)O1.[Al]
  11% | 0.9
14: O=C(O)c1ccc2c3c1cccc3c(=O)n1c3ccccc3nc21
  30%&4% | ?
15: COC(=O)Nc1ccc(Cl)c(Cl)c1
  11% | 0.9
16: CCNc1ncc2nc(CCc3ccccc3)c(=O)n(Cc3cccc(OC)c3)c2n1
  0% | 6.4
17: C[C@@H](c1ccccc1)N1C(=O)[C@H]2[C@@H]3[C@H](O)C=CC(=O)[C@H]3CC[C@H]2C1=O
  6% | -0.5[11.7 µM]
18: O=c1[nH]c(=O)n([C@@H]2O[C@H](CO)[C@@H](O)[C@H]2O)cc1Br
  -9% | -0.5
19: O=C(/C=C\c1ccc(O)c(O)c1)O[C@@H]1C[C@](O)(C(=O)O)C[C@@H](O)[C@@H]1O
  ? | -3.7[24.8 µM]
20: O=C(c1cc(C(F)(F)F)cc(C(F)(F)F)c1)N1CCC[C@@]2(CCN(Cc3nccs3)C2)C1
  22% | 2.9
21: O=S(=O)(O)c1cc(O)c2c(N=Nc3ccc(Nc4ccccc4)c4c(S(=O)(=O)O)cccc34)cc(S(=O)(=O)O)cc2c1
  -7% | 2.2
22: CC(C)C[C@@H](CC(=O)N[C@H](CC(=O)N[C@@H]1CCCC[C@H]1C(=O)N[C@H](CC(=O)N[C@@H](CCC(=O)O)CC(=O)O)Cc1c[nH]c2ccccc12)C(C)C)NC(=O)[C@@H]1CNCC[C@H]1N
  -3% | 1.7
23: CC1(C)OC(C(O)(c2cccc3c2oc2ccccc23)c2cccc3c2oc2ccccc23)C(C(O)(c2cccc3c2oc2ccccc23)c2cccc3c2oc2ccccc23)O1 (stereo not drawn)
  -6% | -2.5[11.7 µM]
24: O=C(c1cnccn1)N1CCC2(CC1)CN(c1ccccn1)C2
  15% | -1.6
25: COc1ccc(C(=O)N2CCC3(CCN(Cc4ccncc4)CC3)CC2)cc1
  10% | -9.3
26: COc1c(O)c2c(=O)cc(OC)c3c4c(OC)cc(=O)c5c(O)c(OC)c6c(c(c1C[C@@](C)(O)[C@H]6C(C)=O)c23)c54
  -14% | -8.7
27: CN(C)c1ncc2nc(CCc3ccccc3)c(=O)n(-c3ccccc3)c2n1
  ? | ?
28: CN(C)C(=O)Nc1ccc(Oc2ccc(Cl)cc2)cc1
  9% | -1.7
29: CC(C)NC(=O)N1CC2(CCN(C(=O)c3cccn3C)CC2)C1
  8% | -2.2
30: COC(=O)[C@H](Cc1ccccc1)NC(=O)O[C@@H]1C(=O)c2cc(OC)ccc2O[C@H]1c1cccc(OC)c1
  -22% | -1.4
31: COc1ccc(NC(=O)N2CCC3(CC2)CCN(C(=O)c2cc(C(F)(F)F)cc(C(F)(F)F)c2)CC3)cc1
  25% | 1.1
32: CS(=O)(=O)N1CCC[C@@]2(CCN(C(c3ccccc3)c3ccccc3)C2)C1
  15% | 4.8
33: COCCn1c(=O)c(-c2cccs2)nc2cnc(N(C)C)nc21
  21% | ?
34: CCCCCCCC/C=C\CCCCCCCC(=O)NCc1ccc(O)c(OC)c1
  20% | ?
35: CCCNC(=O)OC[C@@H]1O[C@H](CCO/N=C(\C)CCN2CCCCc3nc(C)c(C)cc32)C=C[C@@H]1Oc1ccc(OC)cc1
  13% | 1.4[11.7 µM]
36: CS(=O)(=O)Nc1cccc(-c2ccc3ncnc(Nc4ccccc4)c3c2)c1
  18% | 2.5
37: CCCCN1CCC(CCC(=O)c2cc(Cl)c(N)cc2OC)CC1
  -10%&8% | ?
38: CNc1ncnc2ccc(-c3ccccc3C)cc12
  -10% | -3.0
39: COc1ccc(-n2c(=O)cnc3cnc(N4CCN(C)CC4)nc32)cc1
  4% | 0.9
40: O=C(c1cnccn1)N1CCC2(CC1)CN(c1cccc(-c3ccccc3)c1)C2
  -22% | 4.1
41: CC(C)NC(=O)N1CCCC2(CCN(C(=O)c3ccncc3)CC2)C1
  12% | -5.3
42: COCCNc1nc(-c2ccc(C(=O)N(C)C)cc2)nc2ccccc12
  6% | -8.5
43: COc1ccc(-c2ccccc2C2NC(C(=O)O)CCC2C)cc1 (stereo not drawn)
  28% | -2.3[11.7 µM]
44: CCCCC[C@H](O)/C=C/C=C\C/C=C\CCCCCCC(=O)O
  6% | -3.3
45: Cn1c(=O)c(-c2ccccc2)nc2cnc(N3CCNCC3)nc21
  -11% | 10
46: O=Cc1ccc(OC2C=CC(c3ccccc3)OC2CO)cc1 (stereo not drawn)
  8% | 1.1[11.7 µM]
47: CC(=O)Nc1ccc(OC(=O)c2ccccc2O)cc1
  -2% | 2.0
48: COC(=O)c1ccc(C(/C=C/[C@@H](C)C(=O)NCc2ccc(OC)c(O)c2)NC(=O)OCc2ccccc2)cc1 (stereo partly drawn)
  -16% | -3.8
49: COc1ccc(CNc2nc(-c3ccc(C(=O)N(C)C)cc3)nc3ccccc23)c(OC)c1
  ? | 0.1
50: C/C(CCN1CCc2nc(-c3ccccc3)c(-c3ccccc3)cc2C1)=N\OC[C@@H](O)[C@@H]1O[C@@H]2OC(C)(C)O[C@@H]2[C@H]1O
  13% | -0.9[11.7 µM]
51: C=CCNC(=O)N1CCc2nc(-c3ccc(OC)cc3C)c3c(c2C1)CO[C@@H](c1ccccc1)C3
  7% | -4.0[11.7 µM]
52: CC1(C)SC2[C@@H](N=CN3CCCCCC3)C(=O)N2[C@H]1C(=O)O (stereo partly drawn)
  -11% | -0.6
53: COc1ccccc1CN1CC2(CCN(C(=O)c3cc(C(F)(F)F)cc(C(F)(F)F)c3)CC2)C1
  3% | -4.1
54: Cc1[nH]c(/C=C2\C(=O)Nc3ccc(S(=O)(=O)N(C)c4cccc(Cl)c4)cc32)c(C)c1C(=O)N1CCN(C)CC1
  3% | ?
55: COC(=O)[C@@]1(Cc2ccccc2)[C@H]2c3cc(C(=O)N(C)C)n(Cc4ccc(S(C)(=O)=O)cc4)c3C[C@H]2CN1C(=O)c1ccccc1
  0% | -0.5
56: CCCn1c(-c2ccc(F)cc2)nc2c(NCCN3CCCCC3)nc(C)nc21
  ? | -1.8
57: O=C(O)CC/C=C\C[C@@H]1CO[C@H](c2ccccc2Cl)O[C@@H]1c1ccccc1O
  ? | ?
58: CCCCc1c(O)n(-c2ccccc2)[nH]c1=O
  -18% | -0.3
59: CCN(CCCCO)c1nc(C)nc2c1c(C)c(C)n2-c1c(C)cc(C)cc1C
  -15% | -0.7
60: CCCCNc1nc(C)nc2c1nc(-c1ccccc1)n2C1CCN(Cc2ccccc2)C1 (stereo not drawn)
  6% | -1.3

(more compounds)
Below each SMILES – Sfp inh | Menin-MLL FL inh
61: COCC(=O)N1CCC2(CC1)CCN(c1cccc(-c3ccccc3)c1)CC2
  -3% | 2.9
62: COc1cc(O)c2c(c1)O[C@H](c1ccccc1)CC2=O
  1% | -1.3
63: C[N+]1(C)[C@@H]2CC(OC(=O)C(O)(c3cccs3)c3cccs3)C[C@H]1[C@@H]1O[C@@H]12 (stereo partly drawn)
  7% | -4.2
64: CC(=O)Oc1ccc2c(c1OC(C)=O)OCC1(O)Cc3c(cc(OC(C)=O)c(OC(C)=O)c3OC(C)=O)C21 (stereo not drawn)
  -1% | 2.7
65: COc1cc2c(cc1OC)C1(O)C(=O)c3ccc(O)c(C(=O)O)c3OC1CO2 (stereo not drawn)
  -19% | 2.3
66: O=C(c1csnn1)N1CCC2(CCN(Cc3ccccc3)CC2)CC1
  -27% | 2.9
67: COc1ccc2oc(-c3ccccc3)c(OC)c(=O)c2c1
  -9% | -6.1
68: CC(=O)N1CCC2(CCCN(Cc3nccs3)C2)CC1
  6% | 0.1
69: CN(Cc1ccco1)c1ncncc1-c1ccccc1Cl
  79µM* | ?
70: C=CCN1c2ccccc2[C@]23C[C@@H](C(=O)OC)N(S(=O)(=O)c4c(C)noc4C)C2=NC(C(=O)OC)=C(C(=O)OC)[C@H]13
  17% | -5.3[11.7 µM]
71: OCC1O[C@H](Oc2ccc(O)cc2)C(O)C(O)C1O (stereo partly drawn)
  17% | -3.8
72: CSCC[C@H](NC(=O)[C@H](CC(C)C)NC(=O)CNC(=O)[C@H](Cc1ccccc1)N(C)C(=O)[C@H](Cc1ccccc1)NC(=O)[C@H](CC(=O)O)NC(=O)[C@@H](N)CC(=O)O)C(N)=O
  20% | 7.4
73: CCOC(=O)C1=C(C)NC(c2ccccc2)=C(C(=O)OCc2ccc([N+](=O)[O-])cc2)[C@@H]1C#Cc1ccccc1
  20% | -22
74: CC(=O)N[C@H]1CSSC[C@@H](C(=O)N2CCC[C@H]2C(=O)N2CCC[C@H]2C(=O)N[C@@H](CCCCN)C(=O)N[C@@H](CC(=O)O)C(N)=O)NC(=O)CNC(=O)[C@H](Cc2c[nH]c3ccccc23)NC(=O)[C@H](CCCNC(=N)N)NC(=O)[C@@H](Cc2ccc3ccccc3c2)NC(=O)[C@H](Cc2cnc[nH]2)NC(=O)[C@H](CCC(=O)O)NC1=O
  7% | 0.2
75: COc1ccc(OC)c(C2=Nn3c(nnc3-c3ccccc3OC)SC2)c1
  -8% | ?
76: COC(=O)C/C=C\[C@@H](C)[C@@H](/C=N\OCC[C@@H]1C=C[C@H](OC(C)=O)[C@H](COC(C)=O)O1)OC
  1µM* | 0.7[11.7 µM]
77: FC(F)(F)c1ccccc1-c1nccc(N2CCNCC2)n1
  3% | -5.5
78: COC(=O)C1=C(C(=O)OC)[C@@H]2N(Cc3ccccc3)c3ccccc3[C@@]23C[C@@H](C(=O)OC)N(S(=O)(=O)c2c(C)noc2C)C3=N1
  -4% | 2.1[11.7 µM]
79: CC(C)C[C@H](NC(=O)[C@H](C)NC(=O)CNC(=O)[C@H](CCCCN)NC(=O)[C@H](CCCN=C(N)N)NC(=O)[C@H](C)NC(=O)[C@H](Cc1ccccc1)NC(=O)[C@@H](N)CCCN=C(N)N)C(=O)N[C@@H](CCCN=C(N)N)C(=O)N[C@@H](CCC(N)=O)C(=O)N[C@@H](CCCCN)C(=O)N[C@@H](CC(N)=O)C(=O)N[C@H](C(N)=O)C(C)C
  -12% | -15
80: CC(=O)OC1CC(OC(C)=O)[C@]2(C)C(CC(=O)[C@]3(C)C2CC[C@@]2(C)C(C(=O)O)OC(=O)C4OC423)C1(C)C (stereo partly drawn)
  -3% | 0.5
81: CCCC1(C(=O)OC)C=C2C(=C(C)C(=O)C2C)CN1 (stereo not drawn)
  -16% | ?
82: CC(C)CCCCCCc1ccc(O)cc1
  11% | -1.7
83: COS(C)(=O)=O
  21% | 1.8
84: C[C@@H]1CC[C@H]2C(=O)N3[C@@H](CC[C@@H](C)[C@@H]3c3ccc(Br)cc3)C(=O)N2[C@@H]1c1ccc(Br)cc1
  -3% | 0.5[11.7 µM]
85: O[C@@H]1CCN2Cc3ccccc3N=C12
  2.8µM* | 0.3
86: CCCC[C@H](NC(=O)[C@@H]1CCCN1C(=O)[C@H]1CCCN1C(=O)[C@H](Cc1ccccc1)NC(=O)[C@@H](Cc1c[nH]c2ccccc12)NC(=O)[C@H](C)NC(=O)[C@H](CCCN=C(N)N)NC(=O)OC(C)(C)C)C(N)=O
  -28% | -0.7
87: O=C(c1cccc(F)c1)N1CCC2(CCCN(c3ccccn3)C2)CC1
  -1% | -2.8

Already shown: an excerpt of the list.
Below each SMILES – Sfp inh | Menin-MLL FL inh
84: C[C@@H]1CC[C@H]2C(=O)N3[C@@H](CC[C@@H](C)[C@@H]3c3ccc(Br)cc3)C(=O)N2[C@@H]1c1ccc(Br)cc1
  -3% | 0.5[11.7 µM]
85: O[C@@H]1CCN2Cc3ccccc3N=C12
  2.8µM* | 0.3
86: CCCC[C@H](NC(=O)[C@@H]1CCCN1C(=O)[C@H]1CCCN1C(=O)[C@H](Cc1ccccc1)NC(=O)[C@@H](Cc1c[nH]c2ccccc12)NC(=O)[C@H](C)NC(=O)[C@H](CCCN=C(N)N)NC(=O)OC(C)(C)C)C(N)=O
  -28% | -0.7
87: O=C(c1cccc(F)c1)N1CCC2(CCCN(c3ccccn3)C2)CC1
  -1% | -2.8
